PINK1 modulator – PINK1 expression modulation | 410,000 tested, 0.2% active | Potency, µM (titrated, usually from 76.6 µM), inactives show at the highest dose activation (PINK1 increase), hits mostly activators | AID 624263 | PINK1 immunofluorescence, high-content cytometry, 24 h; active = well fitted activation curve with a large enough effect; inconclusive = small, poorly fitted or top-dose-only effect; inactive = flat fitted curve, though single readings scatter; cell line not stated here;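 also: potency is read from the fitted curve at half-maximal effect; % of control where 0% means no effect; nearly all actives have a fitted effect of over 65% in size; a mitochondrial uncoupler was the plate control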
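Decision-based qHTS: stable cells, 24 h exposure to five compound concentrations, CCCP as control. Fixed cells stained for PINK1 plus nuclear, mitochondrial and cell markers, cytometer read.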
Menin-MLL FL inh – inhibitors of human menin-MLL interaction, wild-type MLL peptide; Fluorescence polarization, fluorescein-MLL peptide displacement from menin; FP activity change, % at 61.4 µM; 290,000 tested, under 10 active; AID 1766; inconclusive = falling polarisation curve, or a change in total fluorescence; inactive = total fluorescence flat and polarisation flat or rising; no compound was filed as active; the % refers to the polarisation; negative = inhibition;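 also: % of control where 0% means no effect; inhibitors lower the polarisation; unlabelled MLL peptide was the positive control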
gsp agonist – agonists of gsp mutant (McCune-Albright syndrome). gsp mutant cells, cAMP HTRF, 30 min; control for the full effect not named in the record. Potency, µM (series often up to 76.9 µM), without a hit: at the top dose activation (cAMP increase), usual class: activators. 340,000 tested, 0.13% active; active = well fitted activation curve with a large enough effect; inconclusive = small, poorly fitted or top-dose-only effect, or another doubt; inactive = no such curve, though single readings can be large or run the other way; cell line not stated here;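 also: phosphodiesterase inhibitor Ro 20-1724 added with compounds to block cAMP breakdown; potency is read from the fitted curve at half-maximal effect; nearly all actives have a fitted effect of over 60% in size; about a fifth of the inactives were tested at one dose only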
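Cells in DMEM/10% FBS with G418 were pretreated with compounds in DMSO plus […] (300 uM stock) for 30 min at 37C. cAMP was measured by HTRF (cAMP-d2 plus anti-cAMP antibody-K) after 30 min at room temperature.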
Sfp inh – blocks B. subtilis Sfp PPTase activity | 310,000 tested, 3.5% active | AID 1490 | Q9F4F7 | Biochemical Sfp PPTase activity, qHTS | Potency, µM, without a hit: max response, negative = inhibition, most hits filed as inhibitors; active = well fitted inhibition curve with a large enough effect; inconclusive = small, poorly fitted or top-dose-only effect, or another doubt; inactive = no such curve, though single readings can be large or run the other way;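 also: the enzyme is Sfp with the accession as filed and its product quenches rhodamine fluorescence; potency is read from the fitted curve at half-maximal effect; 0% = enzyme reaction without inhibitor and -100% = no enzyme wells; top concentration of the series not given in the record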
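Fluorescence-quenching assay with 15 nM Sfp, 5 uM rhodamine-CoA and 12.5 uM BHQ-2-labelled ybbR peptide in pH 7.6 Hepes/MgCl2 buffer. Enzyme was pre-incubated with compound for 15 min at room temperature. Rate was taken from the 30-min fluorescence change (525/598 nm).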
D2 ag – agonists of human D2 dopamine receptor (beta-arrestin); P14416; DiscoveRx PathHunter D2 beta-arrestin, luminescence, 90 min; 100% = 57 uM dopamine signal; activation, % (concentration not given with the values); 360,000 tested, 0.084% active; in the data active = activation above about 40%; inconclusive = about 15% to 40%; inactive = below about 15%; also: compound concentration not given in the record; the text of the record calls up to 30% inactive
Target sequence (P14416 whole entry, looked up): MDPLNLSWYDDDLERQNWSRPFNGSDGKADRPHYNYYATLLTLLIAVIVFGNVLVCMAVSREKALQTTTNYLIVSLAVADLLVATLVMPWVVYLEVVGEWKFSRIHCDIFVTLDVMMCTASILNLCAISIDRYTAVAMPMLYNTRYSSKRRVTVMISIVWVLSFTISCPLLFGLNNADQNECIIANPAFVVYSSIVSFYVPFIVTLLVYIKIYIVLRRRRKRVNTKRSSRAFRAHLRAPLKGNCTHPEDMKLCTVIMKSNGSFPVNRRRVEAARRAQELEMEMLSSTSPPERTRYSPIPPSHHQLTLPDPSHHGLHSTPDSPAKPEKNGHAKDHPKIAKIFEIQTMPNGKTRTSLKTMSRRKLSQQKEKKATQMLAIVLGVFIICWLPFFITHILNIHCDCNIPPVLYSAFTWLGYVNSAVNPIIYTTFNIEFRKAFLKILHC
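Agonist mode: compounds alone added to overnight-plated D2 PathHunter cells for 90 min at 37 C, with 57 uM final dopamine (EC100) defining full response. Beta-arrestin recruitment detected by chemiluminescent reagent, read after 1 h at ambient temperature.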
ClpP mod – qHTS Assay for Activators of ClpP; ATP-dependent Clp protease proteolytic subunit (Bacillus subtilis (strain 168)), P80244; purified B. subtilis ClpP, FRET peptide cleavage, 20 min; Potency, µM (series often up to 57.5 µM), for inactives: top-dose activity change, negative = active; 340,000 tested, 1.9% active; AID 651965, 2013; active = well fitted falling curve with a large enough effect; inconclusive = small, poorly fitted or top-dose-only effect; inactive = no such curve, though single readings can be large or run the other way; also: potency is read from the fitted curve at half-maximal effect; the source files actives as falling curves though it sought activators and does not explain the sign; nearly all actives have a fitted effect of over 65% in size; many hits overshoot -100%
Target sequence (P80244 whole entry, looked up): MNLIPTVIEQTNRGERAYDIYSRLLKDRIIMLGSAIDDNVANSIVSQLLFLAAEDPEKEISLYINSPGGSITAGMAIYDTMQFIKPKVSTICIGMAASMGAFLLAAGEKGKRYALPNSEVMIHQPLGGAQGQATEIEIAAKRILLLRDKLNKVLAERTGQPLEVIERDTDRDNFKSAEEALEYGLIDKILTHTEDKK
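Purified B. subtilis ClpP, 10 microg/mL final in Tris/HCl pH8 with KCl, BSA, glycerol and Tween-20, cleaved an Abz/nitrotyrosine-quenched decapeptide. Fluorescence (ex 320, em 430) was read at 0 and 20 min at room temperature. Delta was normalized to 5.8 microM ADEP and DMSO/no-enzyme controls.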
gsp antag – antagonizes gsp, the McCune-Albright syndrome mutation; gsp-mutant cells, cAMP HTRF, 30 min; control for the full effect not named in the record; Potency, µM (doses to about 76.9 µM), inactives show at the top dose activity change, negative = inhibition, actives largely listed as inhibitors; 340,000 tested, 0.4% active; AID 624288; active = falling curve of any shape with a large fitted effect; inconclusive = falling curve, mostly with a smaller effect; inactive = flat or rising curve; cell line not stated here;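 also: intracellular cAMP measured with PDE inhibitor Ro 20-1724 present during compound exposure; potency is read from the fitted curve at half-maximal effect; % is scaled to controls: 0 for no effect and ±100 for the full control effect; nearly all actives have a fitted effect of over 65% in size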
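HTRF cAMP read-out (cAMP-d2 plus anti-cAMP antibody-K in lysis buffer, 30 min RT). Before lysis, cells are exposed to compounds with […] for 30 min at 37C in DPBS containing Ca/Mg, BSA and Tween 20.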
* = called active by the depositor; & = joins results of further samples; [ ] = another dose, or the depositor's remark.

What do the screens show for `C/C(CC(=O)NC1CCCC1)=N\NC(=O)C1CCCCC1`?
PINK1 modulator: -1.3%; Menin-MLL FL inh: -0.2; gsp agonist: -7.1%[15.4 µM]; Sfp inh: 10.7%; D2 ag: -0.2

What do the screens show for `O=C(NCc1cccnc1)c1cc(C2CCCN(C(=O)c3cccc(O)c3)C2)on1` (stereo unspecified)?
PINK1 modulator: -0.9%; D2 ag: 11.2; ClpP mod: -0.4%

What do the screens show for `O=c1[nH]cnc(O)c1C1C=CC=CC=C1`?
PINK1 modulator: -1.6%; gsp agonist: -2.8%[15.4 µM]; D2 ag: 5.6; ClpP mod: -0.7%; gsp antag: 3.4%

How did C[N+](C)(C)CCOP(=O)(O)OP(=O)([O-])OC[C@H]1O[C@@H](n2ccc(N)nc2=O)[C@H](O)[C@@H]1O do in these assays?
PINK1 modulator: 1.7%; Menin-MLL FL inh: 0.3; Sfp inh: 11.6%; D2 ag: -3.9; ClpP mod: 3.6%; gsp antag: 0.9%

What do the screens show for `O=C(CN1C(=O)COc2ccccc21)NC1CCCC1`?
PINK1 modulator: -2.1%; Menin-MLL FL inh: -3.3; gsp agonist: 4.7%; Sfp inh: 3.6%; D2 ag: -1.1; gsp antag: 0.1%

What do the screens show for `Cc1nc2nc[nH]n2c(=O)c1NC(=O)c1c(-c2ccccc2Cl)noc1C`?
PINK1 modulator: -3.0%; Menin-MLL FL inh: 3.1; gsp agonist: 6.6%; Sfp inh: 9.9%; D2 ag: -0.6; ClpP mod: -9.9%; gsp antag: 5.2%

Results for COc1cc(NC(=O)CN2CCN(CC(=O)Nc3ccccc3OC)CC2)cc(OC)c1 ?
PINK1 modulator: 1.6%; Menin-MLL FL inh: 5.7; gsp agonist: 21.2%; Sfp inh: 10.8%; D2 ag: -3.6; ClpP mod: -1.1%; gsp antag: -17.6%

What do the screens show for `O=C(Cn1cc(-c2nnnn2-c2ccc(Cl)cc2)c(=O)c2ccccc21)c1ccccc1`?
PINK1 modulator: 7.5%; Menin-MLL FL inh: 1.9; gsp agonist: -161.8%[inhibitor]; Sfp inh: inconclusive; D2 ag: -1.3; ClpP mod: 1.9%; gsp antag: -10.6%

What do the screens show for `Cc1ccc(C(=O)OCC(=O)Nc2ccccc2C(F)(F)F)cc1S(=O)(=O)N1CCCCC1`?
PINK1 modulator: 1.6%; gsp agonist: 4.2%; D2 ag: -0.9; ClpP mod: -3.0%; gsp antag: 2.5%

What do the screens show for `N#Cc1cc([N+](=O)[O-])ccc1NC(=O)COC(=O)c1cnccn1`?
PINK1 modulator: -1.6%; gsp agonist: 27.3%; D2 ag: 1.9; ClpP mod: inconclusive; gsp antag: -18.4%

How did CCCn1nnnc1NC(=O)COc1ccc(CC)cc1 do in these assays?
PINK1 modulator: 3.0%; Menin-MLL FL inh: 1.2; gsp agonist: -13.5%; Sfp inh: -20.1%; D2 ag: 0.6; ClpP mod: -7.7%; gsp antag: 3.6%

Results for COc1ccc(-n2cc(C(=O)c3cc(Cl)ccc3O)cc(C#N)c2=O)cc1 ?
PINK1 modulator: inconclusive; Menin-MLL FL inh: inconclusive; gsp agonist: 1.0%[15.4 µM]; Sfp inh: 6.4%; D2 ag: 3.1; gsp antag: -24.6%

How did CC(C)N1CCC1(C)C(=O)Nc1cc(-c2ccccc2)nn1C (stereo unspecified) do in these assays?
PINK1 modulator: 2.2%; D2 ag: -3.4; ClpP mod: -0.1%

Results for COc1ccc(C)cc1Nc1n[n+](-c2ccccc2)c(-c2cccc(Cl)c2Cl)s1 ?
PINK1 modulator: 1.8%; Menin-MLL FL inh: -4.9; Sfp inh: inconclusive; D2 ag: -5.4; ClpP mod: 0.8%; gsp antag: 4.8%

Results for O=C(NCCc1ccc(Cl)cc1)C12CC3CC(CC(O)(C3)C1)C2 ?
PINK1 modulator: 2.7%; gsp agonist: 20.0%; Sfp inh: 6.8%; D2 ag: 0.4; ClpP mod: 0.4%; gsp antag: 5.1%

How did COc1ccc(S(=O)(=O)N2CCCN(CC(=O)Nc3cc(NC(C)=O)ccc3OC)CC2)cc1 do in these assays?
PINK1 modulator: 2.1%; Menin-MLL FL inh: -0.4; gsp agonist: 2.7%; Sfp inh: -5.3%; D2 ag: -0.1; ClpP mod: -3.1%; gsp antag: -2.6%

What do the screens show for `C/C(=N/Nc1ccnc2cc(Cl)ccc12)c1ccc(N)cc1`?
PINK1 modulator: -0.6%; gsp agonist: 28.3%; D2 ag: 8.0; ClpP mod: -2.6%; gsp antag: -10.4%

How did O=C(Nc1cccc(Cl)c1)C1CCCN(C2=NS(=O)(=O)c3ccccc32)C1 (stereo unspecified) do in these assays?
PINK1 modulator: -0.1%; gsp agonist: -10.4%[15.4 µM]; D2 ag: 1.8; ClpP mod: -16.0%; gsp antag: -17.5%

What do the screens show for `C[C@H](CO)N1C[C@H](C)[C@H](CN(C)S(=O)(=O)c2ccc(C#N)cc2)OCc2cnnn2CCCC1=O`?
PINK1 modulator: 1.0%; gsp agonist: -5.4%; D2 ag: 0.8; ClpP mod: -0.5%

What do the screens show for `COCc1nnc(NC(=O)C2CC(=O)N(C3CCCCC3)C2)s1` (stereo unspecified)?
PINK1 modulator: 0.2%; Menin-MLL FL inh: -2.1; gsp agonist: -3.1%; Sfp inh: -9.1%; D2 ag: -0.1; ClpP mod: 0.5%; gsp antag: 6.0%

How did O=C(NCc1ccccn1)c1cc2ccccn2n1 do in these assays?
PINK1 modulator: -0.1%; Menin-MLL FL inh: -4.7; gsp agonist: 35.6%; Sfp inh: -5.2%; D2 ag: -3.0; ClpP mod: 4.3%; gsp antag: 5.6%

What do the screens show for `CCN(CC)c1ccc(NC(=O)CN2CCN(CC(=O)Nc3ccc(OC)cc3)CC2)cc1`?
PINK1 modulator: 0.1%; Menin-MLL FL inh: 0.0; gsp agonist: -1.3%; Sfp inh: 0.7%; D2 ag: -3.6; ClpP mod: 0.4%; gsp antag: 5.5%

Results for CC(C)c1nc(N2CCCC2)c(C#N)c2c1CCCC2 ?
PINK1 modulator: 8.0%; Menin-MLL FL inh: 5.7; gsp agonist: 14.4%; Sfp inh: -3.4%; D2 ag: -3.8; ClpP mod: 28.2µM*; gsp antag: -26.3%

Results for COc1ccc(-c2nn(-c3ccccc3)cc2CNCCN2CCOC2=O)c(F)c1 ?
PINK1 modulator: 1.2%; Menin-MLL FL inh: -3.0; gsp agonist: -29.5%; Sfp inh: 7.5%; D2 ag: 3.4; gsp antag: -6.7%

How did CN(c1ccc(OCC(=O)Nc2ccccc2C(=O)O)cc1)S(=O)(=O)c1ccc(Cl)cc1 do in these assays?
PINK1 modulator: -2.3%; gsp agonist: -43.9%[inhibitor]; D2 ag: 2.4; ClpP mod: -14.4%; gsp antag: inconclusive

Results for CCCNC(=O)NC(=O)COC(=O)c1ccc(S(=O)(=O)N(C)c2ccccc2OC)cc1 ?
PINK1 modulator: 11.3%; Menin-MLL FL inh: 2.7; gsp agonist: -7.0%[15.4 µM]; Sfp inh: 12.2%; D2 ag: -0.2; ClpP mod: 0.3%; gsp antag: -13.1%

Results for NC(=O)CC(O)c1cccc(Cl)c1 (stereo unspecified) ?
PINK1 modulator: 0.6%; Menin-MLL FL inh: 2.6; gsp agonist: -0.2%; Sfp inh: 3.3%; D2 ag: -1.0; ClpP mod: -1.0%; gsp antag: 13.0%

Results for COc1ccc(NC(=O)C2CCN(c3cnccn3)CC2)cc1Cl ?
PINK1 modulator: 1.3%&-1.2%; Menin-MLL FL inh: -2.4; gsp agonist: inconclusive; Sfp inh: 5.9%; D2 ag: -1.5; ClpP mod: -11.7%&-8.9%; gsp antag: 1.4%

How did CCN(CC)C(=O)Cn1cc(/C=C(\C#N)C(=O)N2CCN(c3ccccc3)CC2)c2ccccc21 do in these assays?
PINK1 modulator: inconclusive; Menin-MLL FL inh: 2.1; gsp agonist: -1.1%; Sfp inh: -5.3%; D2 ag: 3.4; ClpP mod: -0.6%; gsp antag: inconclusive

What do the screens show for `CCOC(=O)c1c(S(=O)(=O)Nc2ccccc2OCC)c(C)n(C)c1C`?
PINK1 modulator: -0.1%; Menin-MLL FL inh: 0.3; gsp agonist: inconclusive; Sfp inh: 19.2%; D2 ag: -1.0; ClpP mod: 0.1%; gsp antag: 13.5%

Results for COc1ccc(NC(=O)C(NS(=O)(=O)c2cccs2)C(C)C)cc1Cl (stereo unspecified) ?
PINK1 modulator: 1.5%; Menin-MLL FL inh: 0.4; gsp agonist: -5.7%[15.4 µM]; Sfp inh: 12.3%; D2 ag: -1.3; gsp antag: -23.1%

How did CC(=O)c1c(C)nc(Nc2nc3ccccc3s2)nc1C do in these assays?
PINK1 modulator: -0.2%; Menin-MLL FL inh: -1.2; gsp agonist: -3.4%; Sfp inh: 17.4%; D2 ag: -2.2; ClpP mod: -0.7%; gsp antag: 23.9%

Results for CN(CC(=O)Nc1cccc(F)c1)C(=O)C1CCN(S(=O)(=O)c2ccc3c(c2)OCCO3)CC1 ?
PINK1 modulator: -2.2%; gsp agonist: -12.7%; D2 ag: 2.0; ClpP mod: -0.7%; gsp antag: -13.8%

How did COc1ccc(S(=O)(=O)Nc2ccc(Cl)cn2)cc1 do in these assays?
PINK1 modulator: -0.6%; Menin-MLL FL inh: -1.5; gsp agonist: 10.3%; Sfp inh: 16.9%; D2 ag: -0.5; gsp antag: -0.9%

How did Cc1cc(C)cc(NC(=S)NCCN2CCOCC2)c1 do in these assays?
PINK1 modulator: -0.7%; gsp agonist: -26.3%; D2 ag: -1.5; ClpP mod: -1.5%; gsp antag: 5.2%

Results for CCOC(=O)C1=C(C)NC(c2cccs2)C(=O)N1 (stereo unspecified) ?
PINK1 modulator: 6.1%; Menin-MLL FL inh: 0.4; gsp agonist: -1.0%[15.4 µM]; Sfp inh: 4.5%; D2 ag: -6.3; gsp antag: 8.9%

How did CCOc1ccccc1N1CCN(C(=S)NCc2ccco2)CC1 do in these assays?
PINK1 modulator: 1.0%; Menin-MLL FL inh: 0.8; gsp agonist: -38.9%[inhibitor]; Sfp inh: -9.7%; D2 ag: -4.5; ClpP mod: -1.8%; gsp antag: 10.4%

Results for C/C(N)=C(/C#N)C(=O)COC(=O)CNS(=O)(=O)c1ccc2ccccc2c1 ?
PINK1 modulator: 3.7%; Menin-MLL FL inh: 2.9; gsp agonist: -20.7%[15.4 µM]; Sfp inh: 15.5%; D2 ag: 1.7; gsp antag: -1.1%

Screening results from PubChem.
